MLL AF4-AF9 inh: blocks AF4 peptide binding to human AF9; 0.47% of 350,000 active; P42568; inhibition, % at 10 µM; AlphaScreen, biotin-AF4 peptide binding to FLAG-AF9; AID 651704;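 active means every replicate reaching a set inhibition limit, whatever the replicate mean, cut at about 25% in these data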;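 further: 0% = plate neutral control median and 100% = total signal loss; the record names both 10 and 1 µM as test concentration; the first replicate is given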
Target sequence (P42568 whole entry, looked up): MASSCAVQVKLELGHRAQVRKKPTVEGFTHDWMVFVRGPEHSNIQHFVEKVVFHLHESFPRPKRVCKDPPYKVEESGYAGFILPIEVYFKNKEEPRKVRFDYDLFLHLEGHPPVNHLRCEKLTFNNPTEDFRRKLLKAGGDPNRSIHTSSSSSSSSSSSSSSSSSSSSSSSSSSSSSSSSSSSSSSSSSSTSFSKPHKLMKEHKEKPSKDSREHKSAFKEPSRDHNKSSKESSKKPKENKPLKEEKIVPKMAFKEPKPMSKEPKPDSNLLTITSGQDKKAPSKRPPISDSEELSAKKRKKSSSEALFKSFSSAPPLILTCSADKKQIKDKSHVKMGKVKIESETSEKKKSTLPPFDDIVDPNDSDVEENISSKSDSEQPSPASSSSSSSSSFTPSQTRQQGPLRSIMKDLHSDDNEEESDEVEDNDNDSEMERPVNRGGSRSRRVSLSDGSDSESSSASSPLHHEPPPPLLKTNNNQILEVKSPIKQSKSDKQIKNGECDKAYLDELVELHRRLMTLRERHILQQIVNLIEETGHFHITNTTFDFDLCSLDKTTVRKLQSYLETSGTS
FGF22 binding: binders of recombinant human FGF22 by thermal shift. SYPRO orange fluorescence; percent of sucrose octasulfate shift, DMSO zero. calls only at 9.99 µM. 1.5% of 340,000 active;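 active means melting point raised past a set limit in the mean and every replicate; three in four hits are not shown here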
Target sequence (Q9HCT0 whole entry, looked up): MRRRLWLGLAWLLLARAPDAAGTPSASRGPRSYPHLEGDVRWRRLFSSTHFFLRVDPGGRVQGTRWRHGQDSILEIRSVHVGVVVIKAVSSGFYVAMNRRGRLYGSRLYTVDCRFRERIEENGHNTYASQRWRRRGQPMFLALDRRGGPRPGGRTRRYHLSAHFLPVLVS
* hit, by the source's call; i = inactive; + = active, no number; & = joins results of further samples.

Every second line gives: FGF22 binding | MLL AF4-AF9 inh
O=C(C1CCCCC1)N1CC2(C1)[C@H](c1ccccc1)[C@@H](CO)N2Cc1nccs1
 : i | -3.9
O=C(C[C@@H]1C[C@@H]2c3cc(NC(=O)Nc4ccc(C(F)(F)F)cc4)ccc3O[C@@H]2[C@@H](CO)O1)NCc1cc(F)ccc1F
 : i | -15
C[C@@H]1CN([C@@H](C)CO)C(=O)Cc2cc(NS(=O)(=O)c3cn(C)cn3)ccc2O[C@H]1CN(C)S(=O)(=O)c1ccccc1
 : i | -8.8
O=[N+]([O-])c1cc2c(ccc3occc32)o1
 : i | -0.3
C[C@H](CO)N1C[C@H](C)[C@H](CN(C)C(=O)Cc2ccncc2)Oc2cc(C#CC3(O)CCCC3)ccc2S1(=O)=O
 : i | 3.2
C[C@@H]1CN([C@H](C)CO)C(=O)c2cc(NC(=O)c3ccccc3)ccc2O[C@@H](C)CCCCO[C@@H]1CN(C)C(=O)Nc1cccc2ccccc12
 : i | 3.1
C[C@@H]1CN([C@@H](C)CO)C(=O)Cc2cc(NC(=O)CCCN(C)C)ccc2O[C@H]1CN(C)S(=O)(=O)c1ccccc1
 : i | -0.7
O=C(c1ccc(F)cc1)N1CCCCN2[C@@H](CO)[C@@H](c3ccc(-c4ccccc4)cc3)[C@@H]2C1
 : i | 4.2
C[C@H]1CCCCO[C@H](CN(C)S(C)(=O)=O)[C@@H](C)CN([C@@H](C)CO)C(=O)c2cc(NC(=O)NC3CCCCC3)ccc2O1
 : i | -3.3
COc1ccccc1CCn1cnc(-c2ccc(F)cc2)c1CC(C)C
 : i | 12
C[C@@H]1CN([C@H](C)CO)C(=O)c2cc(N(C)C)ccc2O[C@@H]1CN(C)S(=O)(=O)c1ccccc1
 : i | 1.7
C[C@H](CO)N1C[C@H](C)[C@@H](CN(C)C)Oc2ncc(-c3cccc(C#N)c3)cc2C1=O
 : i | -3.0
C[C@@H]1CN([C@H](C)CO)C(=O)c2cc(NC(=O)Cc3ccccc3)ccc2O[C@@H](C)CCCCO[C@@H]1CN(C)C(=O)C1CCCCC1
 : i | 0.4
C[C@@H]1CCCCO[C@H](CN(C)S(=O)(=O)c2ccccc2)[C@@H](C)CN([C@H](C)CO)C(=O)c2cc(NC(=O)CCCN(C)C)ccc2O1
 : i | 1.5
C[C@H]1CN([C@@H](C)CO)S(=O)(=O)c2ccc(-c3ccc(C#N)cc3)cc2O[C@H]1CN(C)C(=O)Nc1cc(F)ccc1F
 : i | -3.8
O=C(NC1Cc2ccccc2C1)[C@@H]1[C@@H](CO)[C@@H]2Cn3c(ccc(C4=CCCCC4)c3=O)[C@@H]2N1CC1CC1
 : i | 5.4
C[C@@H]1CN([C@H](C)CO)C(=O)Cc2cc(NS(=O)(=O)c3ccc(F)cc3)ccc2O[C@@H]1CN(C)CC1CC1
 : i | -2.3
C[C@@H]1CCCCO[C@H](CN(C)C(=O)Nc2ccccc2)[C@H](C)CN([C@H](C)CO)C(=O)c2cc(NC(=O)Cc3ccccc3)ccc2O1
 : i | 0.8
C[C@@H]1CN([C@@H](C)CO)C(=O)c2cc(NC(=O)C3CCCCC3)ccc2O[C@@H]1CN(C)Cc1ccc(C(=O)Nc2ccccc2N)cc1
 : i | 0.0
CNC[C@@H]1Oc2cc(C#CC(C)C)ccc2S(=O)(=O)N([C@H](C)CO)C[C@H]1C
 : i | 2.8

Brought forward from above: two compounds, followed by the next part.
Every second line gives: FGF22 binding | MLL AF4-AF9 inh
C[C@@H]1CN([C@@H](C)CO)C(=O)c2cc(NC(=O)C3CCCCC3)ccc2O[C@@H]1CN(C)Cc1ccc(C(=O)Nc2ccccc2N)cc1
 : i | 0.0
CNC[C@@H]1Oc2cc(C#CC(C)C)ccc2S(=O)(=O)N([C@H](C)CO)C[C@H]1C
 : i | 2.8
O=C(C[C@H]1C=C[C@H](NC(=O)Nc2ccc3c(c2)OCO3)[C@H](CO)O1)NCc1ccc2c(c1)OCO2
 : i | 2.1
CO[C@@H]1CN(C)C(=O)c2ccc(NC(=O)c3nc4ccccc4s3)cc2OC[C@@H](C)N(Cc2ccccc2)C[C@H]1C
 : i | 2.1
COCC(=O)Nc1ccc2c(c1)[C@H]1C[C@@H](CC(=O)NCc3ccccc3)O[C@H](CO)[C@H]1O2
 : i | 1.5
N#C[C@H]1[C@@H](c2ccc(C3=CCCC3)cc2)[C@H](CO)N1C(=O)c1cccc(F)c1
 : i | -4.8
COc1ccccc1CN1CC[C@@H]2[C@@H](CO)Nc3ccc(C#Cc4ccccc4)cc3[C@@H]21
 : i | 3.7
O=C(Nc1cccc(F)c1)N1CCCCN2[C@H](CO)[C@H](c3ccc(-c4ccccc4F)cc3)[C@H]2C1
 : i | 7.0
C[C@H]1CCCCO[C@H](CN(C)Cc2ccccc2)[C@@H](C)CN([C@@H](C)CO)C(=O)c2cc(NC(=O)C3CCCCC3)ccc2O1
 : i | 7.8
C[C@H]1CN([C@@H](C)CO)C(=O)Cc2cc(NC(=O)CCC(F)(F)F)ccc2O[C@H]1CN(C)Cc1ccc(C(=O)Nc2ccccc2N)cc1
 : i | 2.9
COc1ccccc1NC(=O)N[C@@H]1C=C[C@@H](CC(=O)N[C@@H](C)c2ccccc2)O[C@@H]1CO
 : i | -1.7
C[C@H]1CN([C@@H](C)CO)C(=O)Cc2cc(NC(=O)Cc3cn(C)c4ccccc34)ccc2O[C@H]1CN(C)Cc1ccc(C(F)(F)F)cc1
 : i | -5.4
Cc1ccc(S(=O)(=O)N2C[C@@H](O)COC[C@H]3O[C@@H](CC(=O)N[C@H]4CCN(Cc5ccccc5)C4)CC[C@@H]32)cc1
 : i | 4.7
Cc1cccc(S(=O)(=O)N(C)C[C@@H]2OCc3ccccc3-c3c(n(C)c4ccccc34)C(=O)N([C@@H](C)CO)C[C@H]2C)c1
 : i | 4.8
COCC(=O)N(C)C[C@H]1Oc2cc(-c3ccccc3)ccc2S(=O)(=O)N([C@@H](C)CO)C[C@H]1C
 : i | -1.1
C[C@@H]1CN([C@H](C)CO)S(=O)(=O)c2ccc(C#Cc3ccccc3)cc2O[C@@H]1CN(C)C(=O)c1ccccn1
 : i | 2.8
COc1ccc(S(=O)(=O)N(C)C[C@H]2Oc3ccc(NC(=O)CCCN(C)C)cc3CC(=O)N([C@@H](C)CO)C[C@H]2C)cc1
 : i | -2.8
COc1ccc(C#Cc2ccc3c(c2)[C@]2(C(=O)N3)[C@H](C(=O)Nc3nc4ccccc4s3)[C@H]3C(=O)O[C@H](c4ccccc4)[C@H](c4ccccc4)N3[C@@H]2c2ccccc2OCCO)cc1
 : i | -3.0
COc1ccc(C#Cc2ccc([C@H]3[C@H]4CN(C(=O)C5CCOCC5)CC(=O)N4[C@H]3CO)cc2)cc1
 : i | 1.2
C[C@@H]1CN([C@@H](C)CO)S(=O)(=O)c2ccc(C3=CCCCC3)cc2O[C@H]1CN(C)C(=O)CN(C)C
 : + | -3.8
COc1ccccc1CN1C[C@@H](C)[C@@H](OC)CN(C)C(=O)c2ccc(NC(C)=O)cc2OC[C@H]1C
 : i | 0.8
C[C@H](CO)N1C[C@H](C)[C@H](CN(C)S(C)(=O)=O)Oc2c(NC(=O)Nc3ccc(C(F)(F)F)cc3)cccc2C1=O
 : i | -0.4

(more compounds)
Every second line gives: FGF22 binding | MLL AF4-AF9 inh
C[C@H](O)C#Cc1ccc2c(c1)O[C@@H](CN(C)Cc1ccncc1)[C@@H](C)CN([C@H](C)CO)S2(=O)=O
 : i | 1.0
COCC(=O)Nc1ccc2c(c1)OC[C@@H](C)N(C(=O)CC1CC1)C[C@@H](C)[C@H](OC)CN(C)C2=O
 : i | 0.1
COc1cccc(NC(=O)N2C[C@@H](O)COC[C@@H]3O[C@H](CC(=O)N(C)C)CC[C@H]32)c1
 : i | -1.8
O=C(c1cccnc1)N1C[C@@H]2[C@H](c3ccccc31)[C@H](CO)N2C(=O)Nc1ccccc1
 : i | -2.3
CNC[C@@H]1Oc2ccc(NS(=O)(=O)c3ccccc3)cc2C(=O)N([C@@H](C)CO)C[C@H]1C
 : i | -2.7
CNC(=O)C[C@H]1CC[C@H]2[C@@H](COc3ccc(NC(=O)c4ccc(F)cc4)cc3C(=O)N2C)O1
 : i | -3.4
C[C@H]1CN([C@@H](C)CO)C(=O)c2cc(NC(=O)CCCN(C)C)ccc2O[C@@H]1CN(C)Cc1ccc2c(c1)OCO2
 : i | 2.5
COc1ccc(S(=O)(=O)N(C)C[C@H]2OCCCC[C@@H](C)Oc3ccc(NC(=O)CCC(F)(F)F)cc3C(=O)N([C@@H](C)CO)C[C@H]2C)cc1
 : i | 0.0
C=CCOC(=O)[C@H]1[C@@H]2C(=O)O[C@@H](c3ccccc3)[C@@H](c3ccccc3)N2[C@@H](c2ccc(OCCOC(=O)[C@@H]3C[C@@H]4C(=O)N[C@@H](CC(C)C)C(=O)N4[C@@H]3c3ccc(O)cc3)cc2)[C@]12C(=O)Nc1ccc(I)cc12
 : i | -2.0
C[C@@H]1CN([C@H](C)CO)C(=O)c2cccc(NS(=O)(=O)c3ccccc3)c2O[C@H]1CN(C)Cc1ccc(C(F)(F)F)cc1
 : i | 3.5
CCC(=O)NC[C@@H]1[C@@H](c2ccccc2)[C@@H](CO)N1C(=O)C1CC1
 : i | -6.9
COc1ccccc1C(=O)Nc1ccc2c(c1)C(=O)N(C)C[C@@H](OC)[C@H](C)CN(C)[C@@H](C)CO2
 : i | 1.0
O=C(NC1CCC1)[C@H]1[C@H](CO)[C@H]2Cn3c(ccc(-c4ccccc4F)c3=O)[C@H]2N1Cc1ccncc1
 : i | 0.5
C/C=C/c1ccc2c(c1)O[C@@H](CN(C)CC1CCCC1)[C@H](C)CN([C@H](C)CO)S2(=O)=O
 : i | 5.7
C[C@@H]1CN([C@H](C)CO)C(=O)CCCn2nncc2CO[C@H]1CN(C)C(=O)Nc1ccc2c(c1)OCCO2
 : i | 5.0&-0.8
C[C@H]1CN([C@@H](C)CO)C(=O)Cc2cc(NS(=O)(=O)c3cn(C)cn3)ccc2O[C@@H]1CN(C)CC1CCCCC1
 : i | -14
Cc1cccc(S(=O)(=O)N2C[C@H](O)COC[C@H]3O[C@H](CC(=O)Nc4ccc(-c5ccccc5)cc4)CC[C@@H]32)c1
 : i | -6.1
COc1ccc(S(=O)(=O)Nc2ccc3c(c2)C(=O)N([C@H](C)CO)C[C@@H](C)[C@@H](CN(C)S(=O)(=O)c2cccs2)OCCCC[C@H](C)O3)cc1
 : i | -2.8
CC(C)NC(=O)Nc1ccc2c(c1)C(=O)N([C@H](C)CO)C[C@H](C)[C@@H](CN(C)Cc1ccncc1)OCCCC[C@H](C)O2
 : i | -3.0
C[C@@H]1CN([C@@H](C)CO)C(=O)c2cc(C#CCN(C)C)cnc2O[C@H]1CN(C)Cc1ccc(F)cc1
 : i | 5.7

Marked active in FGF22 binding (from the list above):
Every second line gives: FGF22 binding | MLL AF4-AF9 inh
C[C@@H]1CN([C@@H](C)CO)S(=O)(=O)c2ccc(C3=CCCCC3)cc2O[C@H]1CN(C)C(=O)CN(C)C
 : + | -3.8

(list continues)
Every second line gives: FGF22 binding | MLL AF4-AF9 inh
C[C@H](CO)N1C[C@H](C)[C@@H](CN(C)C)Oc2cc(-c3ccccc3F)ccc2S1(=O)=O
 : i | -0.5
C[C@H](CO)N1C[C@H](C)[C@@H](CN(C)S(=O)(=O)c2ccccc2)Oc2ccc(NC(=O)Nc3ccc(F)cc3)cc2C1=O
 : i | -0.4
C[C@H]1CN([C@@H](C)CO)C(=O)c2cc(C#CC3CCCCC3)cnc2O[C@H]1CN(C)C(=O)Nc1ccccc1
 : i | 5.0
CN1c2ccc(-c3cccc(C#N)c3)cc2[C@@H]2[C@@H](CCN2C(=O)Nc2cc(F)ccc2F)[C@@H]1CO
 : i | 5.0
C[C@@H](NC(=O)C[C@H]1CC[C@@H]2[C@H](COc3ccc(NC(=O)C4CCOCC4)cc3C(=O)N2C)O1)c1ccccc1
 : i | -1.3
CO[C@@H]1CN(C)C(=O)c2ccc(NC(=O)C3CC3)cc2OC[C@@H](C)N(CC2CC2)C[C@@H]1C
 : i | -4.6
C[C@@H]1CN([C@@H](C)CO)C(=O)Cc2cc(NC(=O)CCC(F)(F)F)ccc2O[C@H]1CN(C)Cc1ccc(C(F)(F)F)cc1
 : i | 1.7
O=C(Cc1ccccc1)N[C@H]1C=C[C@H](CC(=O)N2CCCCC2)O[C@H]1CO
 : i | -13
C[C@@H]1CN([C@H](C)CO)C(=O)c2cc(-c3ccc(F)cc3)cnc2O[C@H]1CN(C)Cc1ccc(C(=O)O)cc1
 : i | -2.9
C[C@@H]1CN([C@@H](C)CO)C(=O)c2cc(-c3cncnc3)cnc2O[C@@H]1CN(C)Cc1ccc(F)cc1
 : i | -3.8
Cc1ccc(S(=O)(=O)N(C)C[C@@H]2Oc3cc(C4=CCCC4)ccc3S(=O)(=O)N([C@H](C)CO)C[C@H]2C)cc1
 : i | 1.1
CNC(=O)C[C@@H]1CC[C@H]2[C@@H](COc3ccc(NC(=O)Nc4ccccc4)cc3C(=O)N2C)O1
 : i | -4.2
CC(C)NC(=O)Nc1ccc2c(c1)CC(=O)N([C@@H](C)CO)C[C@@H](C)[C@@H](CN(C)S(=O)(=O)c1cn(C)cn1)O2
 : i | -0.7
O=C(N[C@H]1C=C[C@@H](CC(=O)N2CCCCC2)O[C@@H]1CO)c1cccc(F)c1
 : i | -22
COc1ccc(NC(=O)N(C)C[C@@H]2Oc3ccc(NC(=O)Nc4ccc(C(F)(F)F)cc4)cc3CC(=O)N([C@H](C)CO)C[C@@H]2C)cc1
 : i | 0.9
Cc1ccc(S(=O)(=O)Nc2ccc3c(c2)C(=O)N([C@H](C)CO)C[C@H](C)[C@H](CN(C)Cc2ccc(C(F)(F)F)cc2)OCCCC[C@H](C)O3)cc1
 : i | -1.8
Cc1noc(C)c1NC(=O)Nc1ccc2c(c1)C(=O)N([C@@H](C)CO)C[C@@H](C)[C@H](CN(C)Cc1ccncc1)OCCCC[C@H](C)O2
 : i | -2.8
C[C@H](NC(=O)C[C@H]1CC[C@H]2[C@@H](COC[C@H](O)CN2C(=O)Nc2cc(Cl)cc(Cl)c2)O1)c1ccccc1
 : i | -0.5

Compound activity from PubChem.

Not all compounds are listed; count on the stated rates, not on these rows.
